Compound activity (PubChem)
FGF22 binding: FGF22 (human) thermal shift binding. Q9HCT0. recombinant FGF22 thermal shift, SYPRO orange fluorescence; percent of sucrose octasulfate shift, DMSO zero. calls only at 9.99 µM. 340,000 tested, 1.5% active;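 active means melting point raised past a set limit in the mean and every replicate; inconclusive means no clear call; three in four hits are not shown here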
Target sequence (Q9HCT0 whole entry, looked up): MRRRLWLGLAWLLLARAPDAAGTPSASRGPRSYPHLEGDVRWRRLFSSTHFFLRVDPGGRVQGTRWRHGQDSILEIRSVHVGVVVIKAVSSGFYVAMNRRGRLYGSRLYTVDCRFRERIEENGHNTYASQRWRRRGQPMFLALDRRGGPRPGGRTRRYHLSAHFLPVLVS
T cruzi inh: blocks replication of Trypanosoma cruzi | 300,000 tested, 1.4% active | T. cruzi beta-gal in NIH3T3, luminescence, 90 h | inhibition, % (concentration not given with the values);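 active means mean inhibition across valid replicates above about 55%, limit read from the data; inconclusive means mean below that limit but half or more replicates reach it; inactive means mean below it, under half of replicates reach it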;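 further: signal also drops with host cell toxicity which is not excluded here; 0% = plate median of DMSO wells and 100% = zero luminescence signal; higher percent means less beta-gal luminescence so fewer parasites; stock transfer was 50 nL into about 50 µL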
RanGTP-Imp inh: disruptors of Ran-importin-beta complex formation – biochemical, FRET, CFP-Ran, YFP-importin-beta, homogeneous, primary screen | cell-free CFP-Ran/YFP-importin-beta FRET ratio | inhibition, % (no concentration beside the values) | 300,000 tested, 1.1% active;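 active means most replicates above 15%; inconclusive means exactly half above 15%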;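 further: 0% = DMSO wells and 100% = Ran loaded with GDP instead of GTP; wells of about 40 µL received 100 nL stock; the first replicate is given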
Calb FLC: affects C. albicans growth with fluconazole; 300,000 tested, 0.57% active; C. albicans CaCi-2 (fluconazole-resistant clinical isolate) + fluconazole, Alamar Blue growth, 48 h; growth inhibition, % (test concentration not listed); AID 1979;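 active means most replicates above 75%; inconclusive means exactly half above 75%; inactive means most below 75%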;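 further: all wells also contain fluconazole at 8 µg/ml as a sub-toxic cotreatment; 0% = median of DMSO wells and 100% = median of geldanamycin control wells; wells of about 8 µL received 7.5 nL stock; the first replicate is given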
MLL AF4-AF9 inh: inhibitors of human MLL-AF4/AF9 interaction | P42568 | AID 651704 | inhibition, % at 10 µM | 350,000 tested, 0.47% active | AlphaScreen, biotin-AF4 peptide binding to FLAG-AF9;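 active means every replicate reaching a set inhibition limit, whatever the replicate mean, cut at about 25% in these data; inconclusive means mean inhibition reaches that limit but some replicates miss it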;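 further: 0% = plate neutral control median and 100% = total signal loss; the record names both 10 and 1 µM as test concentration; the first replicate is given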
Target sequence (P42568 whole entry, looked up): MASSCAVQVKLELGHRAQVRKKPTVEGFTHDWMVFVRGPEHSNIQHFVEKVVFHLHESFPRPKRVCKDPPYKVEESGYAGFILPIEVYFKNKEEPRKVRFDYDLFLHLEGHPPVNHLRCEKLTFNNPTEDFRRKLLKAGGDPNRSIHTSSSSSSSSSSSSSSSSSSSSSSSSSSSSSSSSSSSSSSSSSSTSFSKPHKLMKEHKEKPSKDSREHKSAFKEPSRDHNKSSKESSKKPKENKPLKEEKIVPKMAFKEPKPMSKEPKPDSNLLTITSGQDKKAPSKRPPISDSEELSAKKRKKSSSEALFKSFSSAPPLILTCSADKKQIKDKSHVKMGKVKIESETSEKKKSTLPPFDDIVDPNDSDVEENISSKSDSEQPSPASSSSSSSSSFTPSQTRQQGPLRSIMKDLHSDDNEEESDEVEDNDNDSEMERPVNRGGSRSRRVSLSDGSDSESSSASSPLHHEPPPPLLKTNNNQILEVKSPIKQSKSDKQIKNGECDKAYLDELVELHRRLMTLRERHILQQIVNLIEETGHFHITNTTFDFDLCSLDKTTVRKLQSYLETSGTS
Ecoli rRNA inh: inhibitors of bacterial rRNA selective over humanized ribosomes; E. coli WT GFP vs humanized-ribosome RFP mutants, fluorescence, 24 h; hits give low values; DMSO median 0, no signal -100; GFP signal change (wild-type ribosome), % (no concentration beside the values); 350,000 tested, 1.6% active;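 active means significant combined selectivity score with lowered wild-type GFP, culture density cut under 30%, mutant RFP and density less affected; inactive means any of these conditions unmet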; further: one replicate is shown; some compounds called inactive have numbers as strong as hits
ALR H2O2 inh: human ALR oxidase inhibition via reduced H2O2; P55789; purified ALR, DTT oxidation, H2O2 HRP-luminol luminescence; inhibition, % (no concentration beside the values); 290,000 tested, 3.8% active;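 active means mean and each replicate at 75% or more; inconclusive means only one of the two met; inactive means neither met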;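 further: stock transfer was 7.5 nL into about 7.5 µL; 0% = neutral wells and 100% = wells with inactivated enzyme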
Target sequence (P55789 whole entry, looked up): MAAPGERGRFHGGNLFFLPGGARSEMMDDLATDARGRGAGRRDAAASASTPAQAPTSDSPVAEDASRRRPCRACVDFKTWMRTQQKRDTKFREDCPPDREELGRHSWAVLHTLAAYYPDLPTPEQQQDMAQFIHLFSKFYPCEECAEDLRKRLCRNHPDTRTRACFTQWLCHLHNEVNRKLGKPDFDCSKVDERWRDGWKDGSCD
Beta apoptosis: beta cell apoptosis inhibition | 300,000 tested, 0.8% active | protection from apoptosis, % (concentration not given with the values) | AID 435005 | INS-1E cytokine-induced death, ATP luminescence, 48 h; percent of positive-control rescue, neutral wells zero;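 active means all replicates at 75% or more, or half of them and the mean; inconclusive means half reach 75% but not the mean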;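 further: 0% = cytokine-treated negative control wells and 100% = positive control rescue; higher means more ATP so stronger rescue from cytokine killing; wells of about 40 µL received 100 nL stock; the first replicate is given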
Ecoli rRNA inh OD600: recorded beside Ecoli rRNA inh, whose call it bears; OD600 change, %; measured here: OD600 growth;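 optical density of the mix in the first replicate; 0 = DMSO median and -100 = no signal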
Ecoli rRNA inh RFP: recorded beside Ecoli rRNA inh, whose call it bears; RFP signal change, %; measured here: RFP humanized mutant strains;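 first replicate; 0 = DMSO median and -100 = no signal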
The depositor's hits bear a star; i = inactive; ? = inconclusive; · = not tested or not shown. An excerpt; rates above refer to the full screens.

Structure	FGF22 binding	T cruzi inh	RanGTP-Imp inh	Calb FLC	MLL AF4-AF9 inh	Ecoli rRNA inh	Ecoli rRNA inh OD600	Ecoli rRNA inh RFP	ALR H2O2 inh	Beta apoptosis
COc1ccc(Cc2n[nH]c(=S)n2NC(=O)Nc2ccc(Cl)c(Cl)c2)cc1	i	4.9	0.4	-2.6	4.9	-55.8	-78.7	-27.1	·	10.0
CC(C)CC1(C)N=C(c2ccccc2)C(=S)N1 (centres undefined)	i	7.5	2.8	5.5	5.3	-1.0	-2.2	5.5	2.0	0.0
COc1cccc(-n2c(=O)n(Cc3ccccc3)c(=O)c3[nH]cnc32)c1	i	-12.6	0.4	7.5	-2.5	1.1	5.0	-1.2	4.5	-2.2
CCOC(=O)c1c(NC(=S)N2CCN(C)CC2)sc(C)c1-c1ccccc1	i	61.3*	-0.4	-24.9	13.8	-2.4	-43.0	17.1	9.3	6.9
c1ccc(CN=C2Nc3ccccc3CS2)nc1	i	6.3	1.8	0.2	0.3	1.2	6.5	1.0	-2.0	0.6
NS(=O)(=O)c1ccc(NC(=O)CSc2nnc(C3CC3)n2C2CC2)cc1	i	·	·	·	3.6	-2.6	-9.1	-2.4	1.5	-2.7
CC(C)NC(=O)NC(=O)CN1C(=O)NC(Cc2c[nH]c3ccccc23)C1=O (centres undefined)	i	-1.9	-0.2	-9.2	-9.1	9.0	8.2	-0.3	3.1	-3.3
CCCCn1cc(C(=O)c2cc(Br)ccc2O)cc(C#N)c1=O	·	-7.0	-0.8	-8.5	·	·	·	·	-18.9	19.0
O=C(c1cn(-c2ccccc2)nc1-c1cccc([N+](=O)[O-])c1)N1CCCCC1	i	12.4	2.7	31.3	1.4	12.8	11.4	-0.3	0.8	6.4
O=C(Nc1ccc(NC(=O)c2ccco2)cc1)c1cnccn1	·	-11.3	-3.7	5.2	·	·	·	·	0.9	3.4
O=C(O)c1cc(N/N=C/c2ccc(N3CCOCC3)s2)ccc1Cl	i	-2.7	-4.7	2.4	-10.3	13.3	-0.8	4.6	·	-4.7
NS(=O)(=O)c1ccc(N2N=C(c3ccccc3)CC2c2ccccc2)cc1 (centres undefined)	·	9.8	-1.8	12.8	·	·	·	·	-12.3	5.7
CCOC(=O)N1CCC(NC(=O)c2cccs2)CC1	i	-8.8	-0.4	4.1	-0.9	16.9	-0.5	3.1	-6.9	0.3
FC(F)(F)c1ccc(Cl)c(-n2c(-c3cc(-c4ccco4)[nH]n3)n[nH]c2=S)c1	i	-12.5	3.7	16.4	·	5.7	6.0	19.2	45.0	-1.6
COc1ccc(C(=O)Nc2ccc3ccccc3c2)cc1	i	-1.3	3.9	0.1	-3.9	8.2	-0.6	-2.5	·	6.8
CCCOc1ccc(C(=O)NC(=S)NNC(=O)c2c(-c3ccccc3)noc2C)cc1	i	-36.4	1.4	-1.2	·	-16.5	-3.4	-4.5	99.8*	17.2
CC1CCC2(CC1)NC(=O)N(CC(=O)Nc1sc3c(c1C(N)=O)CCC3)C2=O (centres undefined)	i	-3.1	1.7	14.3	-0.8	5.9	3.0	3.2	1.2	·
COc1c(C(O)CC(C)C)ccc2c1C(=O)OCc1cc(C)cc(O)c1O2 (centres undefined)	i	2.4	0.0	9.0	4.5	·	·	·	33.1	6.7
Cc1nc2ccccc2n1CC(=O)NCCN1CCOCC1	·	-13.8	3.8	?	·	15.2	19.0	-0.6	-3.4	·
CC1=C(C(=O)Nc2ccc(CC(=O)NCc3ccccc3C)cc2)SCCO1	i	-2.7	-3.4	-35.8	-1.7	-1.7	-2.1	1.2	-8.9	-1.6
CC(=O)c1c(C)[nH]c(C(=O)OCC(=O)Nc2ccc(Cl)c(S(=O)(=O)N(C)C)c2)c1C	i	-22.0	1.0	-22.3	6.4	-6.2	6.6	3.9	-12.0	5.0
FC(F)(F)c1cccc(NC(=S)NC2CCCC2)c1	·	-14.6	3.3	1.4	·	·	·	·	5.5	1.8
CC(C)c1nc2sc3c(NCc4ccco4)ncnc3c2c2c1COC(C)(C)C2	·	39.8	-3.0	12.1	·	·	·	·	-9.7	2.0
CCOC(=O)CN1C2=NCCCN2c2ccccc21	i	-16.3	-0.7	-21.0	-1.2	17.2	22.3	-1.0	-24.7	-1.3
CCCCn1c(SCc2nnc(-c3ccccc3)o2)nc2c1c(=O)n(C)c(=O)n2C	·	-6.8	1.6	2.0	·	·	·	·	78.1*	1.1
CC(=O)Nc1cccc(C(=O)Oc2cccc(C)c2)c1O	·	-4.6	-5.4	0.9	·	·	·	·	43.0	3.4
CC(C)(C)c1ccc(C2CC2C(=O)N/N=C\c2cc3ccccc3nc2Cl)cc1 (centres undefined)	·	-2.6	?	24.3	·	·	·	·	·	-5.1
CCCc1cc(-c2ccc(O)c(OCC)c2)c(C#N)c(N)n1	·	8.7	0.4	5.0	·	·	·	·	62.6	7.6
CCOc1ccc2[nH]cc(C(=O)NCCCN3CCOCC3)c(=O)c2c1	i	-8.7	4.2	-2.0	-0.3	6.0	15.9	0.5	·	-2.8
O=C(NNc1ncnc2c1cnn2-c1ccccc1)c1cccs1	i	-9.8	-0.9	1.0	-1.0	-4.0	7.4	-2.0	17.0	-3.8
CCN(CC)S(=O)(=O)c1ccc(N2CCCC2)c(C(=O)Nc2ccc(OC)c(Cl)c2)c1	·	11.9	?	-6.1	·	·	·	·	-6.4	-1.2
Cc1ccc(S(=O)(=O)N2CCCCC2)cc1C(=O)NC1CCCCC1	i	-11.5	1.1	5.1	-5.7	16.2	6.2	0.5	-0.2	-2.5
Cc1onc(-c2ccccc2)c1C(=O)N1CCN(Cc2ccc3c(c2)OCO3)CC1	i	2.1	0.8	-35.2	1.9	-5.2	-4.9	2.3	-6.4	-3.5
Cc1ccc(CC2CC(=O)N(c3nc4ccccc4n3C)C2=O)cc1 (centres undefined)	·	-22.7	2.3	-3.2	·	·	·	·	0.3	·
COCCCNC(=O)c1ccc(C2SCC(=O)N2Cc2ccco2)cc1 (centres undefined)	i	-4.0	-6.3	?	-8.6	5.0	-1.4	3.0	8.7	-6.0
CC1CN(S(=O)(=O)c2ccc(F)cc2)C(C)N1C(=O)N1CCOCC1 (centres undefined)	i	3.6	1.1	7.2	-0.2	3.8	12.8	2.7	-10.9	7.7
COc1ccc(/C=N/Nc2nc(C(=O)O)cs2)cc1	i	-0.5	?	-2.7	-0.4	5.0	3.0	-0.5	29.8	3.3
CCN1C(=O)c2cccc3c(S(=O)(=O)N(C(C)=O)c4ccc(OC(C)=O)cc4)ccc1c23	i	·	·	·	-7.2	-9.5	-23.4	-0.2	-7.0	14.3
c1ccc(C2CCC(N3CCN(c4ccccc4)CC3)CC2)cc1 (centres undefined)	·	23.4	?	-5.5	·	·	·	·	-27.3	-3.4
CNC(=O)c1cccc2cccc(Sc3ccccc3C(=O)O)c12	i	-6.5	3.3	4.8	-16.9	14.2	-2.5	0.1	-12.8	2.6
O=C(CN1C(=O)COc2ccccc21)NCc1ccccn1	·	-20.4	-4.1	5.3	·	·	·	·	-9.2	0.5
CCOC(=O)Cc1csc(NC(=O)Cc2ccc(Cl)cc2)n1	i	1.8	-3.8	-9.9	-0.8	-22.0*	-17.1*	-2.5*	-1.4	0.1
CCCC[C@H](CN[C@@H](CNC)[C@H](C)CC)NCCC12CCC(CC1)C2	i	31.3	1.1	-34.1	5.5	-24.3	-39.0	15.9	-24.7	72.5
CC(=O)c1ccc(N2CCN(C(=O)C3CCCN(S(=O)(=O)c4cnc[nH]4)C3)CC2)cc1 (centres undefined)	·	20.1	?	4.2	·	·	·	·	-10.8	0.6
COC(=O)c1ccccc1NC(=O)CSc1n[nH]c(-c2ccco2)n1	i	-13.7	3.6	-3.0	1.5	2.2	-4.4	-1.9	7.8	-1.9
COc1ccc(-c2cc(=O)c3ccccc3s2)cc1	i	6.6	-0.4	10.1	3.5	1.3	-2.3	-1.6	-6.3	1.0
CCOc1ccc(N2C(=O)CSC2=S)cc1	i	-6.2	-6.1	-1.9	0.0	5.9	-0.8	47.4	-41.4	-1.3
COc1ccccc1N(CC(=O)Nc1ccc2c(c1)OCO2)S(=O)(=O)c1ccccc1	·	1.2	0.2	1.2	·	·	·	·	1.3	7.6
CCc1ccc(-n2nnnc2SCC(=O)NNC(=O)c2ccco2)cc1	·	-14.4	5.1	-3.2	·	·	·	·	·	10.4
CCOC(=O)c1ccc(S(=O)(=O)N2CCN(C)CC2)cc1	·	-4.1	-0.3	?	·	·	·	·	-4.9	·

Additional entries follow:
Structure	FGF22 binding	T cruzi inh	RanGTP-Imp inh	Calb FLC	MLL AF4-AF9 inh	Ecoli rRNA inh	Ecoli rRNA inh OD600	Ecoli rRNA inh RFP	ALR H2O2 inh	Beta apoptosis
CCOc1cc(N2CCOCC2)c(OCC)cc1NC(=O)CN1CCC(Cc2ccccc2)CC1	i	62.0*	1.9	10.3	28.9*	-18.2	-22.0	-1.4	-29.9	-4.5
CCOc1cc(C(=O)Nc2cc(C)ccc2C)ccc1OCC(=O)N1CCCCC1	·	-9.7	2.5	1.5	·	·	·	·	3.4	10.2
Cc1ccc(-n2c(=O)c3sccc3n(CC(=O)NC3CCCC3)c2=O)cc1	i	-4.6	0.5	4.4	2.6	2.3	7.6	-3.3	·	-1.3
COc1ccc(NC(=O)CSCc2ccc(C)cc2)cc1	·	-13.1	7.3	?	·	·	·	·	-4.6	-8.8
Cc1c(NC(=O)COC(=O)CCc2c[nH]c3ccccc23)c(=O)n(-c2ccccc2)n1C	i	-6.9	-1.8	-5.8	3.1	7.1	3.7	1.4	2.6	-4.9
CCCCNCC1CCCO1 (centres undefined)	i	-6.8	0.5	-8.2	-0.5	11.5	7.8	0.6	-2.0	-1.5
Cc1ccc(C)c(NC(=O)COC(=O)c2c(C)nn(-c3ccccc3)c2C)c1	i	·	·	·	-0.5	21.1	18.6	2.3	-3.6	-3.4
O=C(COc1ccc(S(=O)(=O)NC2CCCCC2)cc1)NC1CCCCC1	·	16.9	?	12.2	·	·	·	·	-3.6	-8.2
